Screens (PubChem BioAssay)
PINK1 modulator – PINK1 expression modulation. 410,000 tested, 0.2% active. Potency, µM (series often up to 76.6 µM), for inactives: at the top dose activation (PINK1 increase), most hits filed as activators. PINK1 immunofluorescence, high-content cytometry, 24 h; active = well fitted activation curve with a large enough effect; inconclusive = small, poorly fitted or top-dose-only effect; inactive = flat fitted curve, though single readings scatter; cell line not stated here;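 note: potency is the fitted concentration of half-maximal effect; % of control where 0% means no effect; nearly all actives have a fitted effect of over 65% in size; a mitochondrial uncoupler was the plate control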
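Fluorescence from anti-PINK1 antibody, together with nuclear and cell stains, was scanned on a laser-scanning cytometer. Before staining, stable-line cells were incubated 24 hours with compounds at 5 concentrations; primary antibody 12 h at 10 degrees C.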
TRPV1 potentiator – enhances activation of the human vanilloid receptor TRPV1; Q8NER1; TRPV1-expressing cells, Fluo-8 calcium influx, capsaicin EC20 potentiation; host cell line not named in the record; control for the full effect not named in the record; potentiation, % at 8.33 µM; 320,000 tested, 0.02% active; AID 540277; active means potentiation above 80%; inconclusive means 30% to 80%; inactive means below 30%; note: 0% is about no effect
Target sequence (Q8NER1 whole entry, looked up): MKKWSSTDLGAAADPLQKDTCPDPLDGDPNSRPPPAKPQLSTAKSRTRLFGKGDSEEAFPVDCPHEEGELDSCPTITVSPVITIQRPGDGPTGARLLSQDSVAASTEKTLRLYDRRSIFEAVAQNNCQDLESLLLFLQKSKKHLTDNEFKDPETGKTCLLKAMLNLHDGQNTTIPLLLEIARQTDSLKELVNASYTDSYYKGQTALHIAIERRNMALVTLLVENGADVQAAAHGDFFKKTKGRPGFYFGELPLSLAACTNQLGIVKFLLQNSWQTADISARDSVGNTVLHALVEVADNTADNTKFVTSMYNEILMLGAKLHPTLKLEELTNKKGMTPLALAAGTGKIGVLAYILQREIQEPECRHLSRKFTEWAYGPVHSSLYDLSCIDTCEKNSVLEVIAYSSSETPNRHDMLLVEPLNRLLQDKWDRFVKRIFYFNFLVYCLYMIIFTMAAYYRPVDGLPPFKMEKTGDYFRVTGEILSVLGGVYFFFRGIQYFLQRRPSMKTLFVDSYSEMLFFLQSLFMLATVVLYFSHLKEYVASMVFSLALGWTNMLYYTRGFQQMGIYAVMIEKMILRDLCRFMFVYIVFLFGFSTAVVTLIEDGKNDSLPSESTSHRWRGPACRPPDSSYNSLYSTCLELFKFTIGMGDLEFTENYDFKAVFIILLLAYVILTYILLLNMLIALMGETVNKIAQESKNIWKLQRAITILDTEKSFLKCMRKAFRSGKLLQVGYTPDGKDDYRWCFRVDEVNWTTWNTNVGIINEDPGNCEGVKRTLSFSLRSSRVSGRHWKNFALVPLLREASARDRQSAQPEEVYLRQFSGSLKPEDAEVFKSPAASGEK
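TRPV1-expressing cells were cultured overnight at 35.5C and loaded with Fluo-8 calcium dye for 40 to 90 min at room temperature. After a 10 s baseline, compound was added and calcium influx was read kinetically for 3 min (ex 480/em 520 nm).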
Sfp inh – Sfp phosphopantetheinyl transferase inhibition | AID 1490 | Biochemical Sfp PPTase activity, qHTS | 310,000 tested, 3.5% active | Potency, µM, inactives show max response, negative = inhibition, most hits filed as inhibitors; active = well fitted inhibition curve with a large enough effect; inconclusive = small, poorly fitted or top-dose-only effect, or another doubt; inactive = no such curve, though single readings can be large or run the other way;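 note: the enzyme is Sfp with the accession as filed and its product quenches rhodamine fluorescence; potency is the fitted concentration of half-maximal effect; 0% = enzyme reaction without inhibitor and -100% = no enzyme wells; top concentration of the series not given in the record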
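Step 1, compound plus 15 nM Sfp-PPTase, 15 min, room temperature. Step 2, add rhodamine-CoA (5 uM) and BHQ-2-YbbR (12.5 uM). Step 3, read 525/598 nm fluorescence at 0 and 30 min.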
D2 agonist – activates the human D2 dopamine receptor; AID 624465; DiscoveRx PathHunter D2 beta-arrestin, luminescence, 90 min; 100% = 57 uM dopamine signal; P14416; activation, % (no concentration beside the values); 360,000 tested, 0.084% active; in the data active = activation above about 40%; inconclusive = about 15% to 40%; inactive = below about 15%; note: compound concentration not given in the record; the text of the record calls up to 30% inactive
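Agonist mode: compounds alone added to overnight-plated D2 PathHunter cells for 90 min at 37 C, with 57 uM final dopamine (EC100) defining full response. Beta-arrestin recruitment detected by chemiluminescent reagent, read after 1 h at ambient temperature.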
D2 PAM – positive allosteric modulators of human D2 dopamine receptor. P14416. DiscoveRx D2 beta-arrestin cells, luminescence, 90 min; 100% = 57 uM dopamine signal. potentiation, % (no concentration beside the values). 360,000 tested, 0.23% active. AID 624464; active = potentiation of 50% or more; inconclusive = 30% to 50%; inactive = 30% or less;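 note: compound concentration not given in the record; tested on top of an EC20 dose of dopamine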
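PathHunter beta-arrestin assay in DiscoveRx D2 cells. Compounds were added with an EC20 of dopamine (50 nM final) for 90 min at 37 deg C. Luminescence was read 1 h after detection reagent, with 57 uM dopamine as the EC100 control.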
CtBP-E1A inh – blocks the CtBP interaction with E1A. AlphaScreen GST-E1A/His-CtBP binding, 1536-well; active compounds read low; control for the full effect not named in the record. activity change, % (concentration not given with the values). 340,000 tested, 0.49% active. AID 651724; in the data active means activity change below about -65%; inconclusive means about -30% to -65%; inactive means above about -30%; note: % is set by controls: 0 for no effect and ±100 for the full control effect
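AlphaScreen with 125 nM GST-E1A and 125 nM His-CtBP (5X stocks) in Tris pH 8.0, 300 mM NaCl, BSA, Tween 20, TCEP. Compounds preincubated 2 h at 37 deg C, then glutathione donor/nickel acceptor beads added for 1 h at 37 deg C in dark.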
Six1-Eya2 inh – inhibitors of human Six1/Eya2 interaction; AlphaScreen GST-Six1/His-Eya2 binding, biochemical; active compounds read low; control for the full effect not named in the record; activity change, % (no concentration beside the values); 360,000 tested, 0.56% active; in the data active = activity change below about -65%; inconclusive = about -30% to -65%; inactive = above about -30%; note: % is set by controls: 0 for no effect and ±100 for the full control effect
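GST-Six1 + His-Eya2 (5X stock: 250/500 nM); Tris pH 8.0, 300 mM NaCl, 0.05% BSA, 0.02% Tween 20; GSH donor/Ni acceptor beads; 1 h 37 °C dark; AlphaScreen readout.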
* hit, by the source's call; u = inconclusive; x = not tested or not shown; [ ] = dose if it differs, or a comment.

SMILES	PINK1 modulator	TRPV1 potentiator	Sfp inh	D2 agonist	D2 PAM	CtBP-E1A inh	Six1-Eya2 inh
O=C(COC(=O)C12CC3CC(CC(C3)C1)C2)NC12CC3CC(CC(C3)C1)C2	1.1%	-12	-10%	-1.3	-8	5	8
O=C(CCCC1=NS(=O)(=O)c2ccccc2N1)NCCc1ccc(Cl)cc1	-1.3%	1	6%	-7.5	-16	6	-1
COc1ccc(Cl)cc1NS(=O)(=O)c1cccc(C(=O)NCC(c2ccco2)N2CCCC2)c1 (centres undefined)	-1.4%	-3	x	-7.1	-50	-2	2
CN1CCN(S(=O)(=O)c2cccc(C(=O)Nc3ccccc3N3CCCCC3)c2)CC1	-1.0%	-8	x	-0.7	4	9	0
CC(=O)N1CCN(C(c2ccccc2)c2nnnn2C(C)(C)C)CC1 (centres undefined)	0.1%	x	x	x	x	1	1
COc1ccc2cc(CN(Cc3ccco3)C(=S)NCC3CCCO3)c(=O)[nH]c2c1 (centres undefined)	7.0%	-11	-16%	-4.3	-1	-9	4
Cc1cccc(Sc2c(C=O)c3ccccc3n2C)c1	1.8%	2	-8%	1.6	-7	26	24
COc1ccc(C(=O)OCC(=O)N(C)C2CCS(=O)(=O)C2)cc1S(=O)(=O)N(C)Cc1ccccc1 (centres undefined)	3.3%	-2	x	-4.1	-5	-7	5
COc1cccc(CN(CC2CCCO2)S(=O)(=O)c2ccc(-n3cnnn3)c(OC)c2)c1 (centres undefined)	-1.6%	9	10%	-0.7	-8	2	-1
O=C(Nc1ccccc1C(=O)O)/C(=C/c1ccc([N+](=O)[O-])cc1)NC(=O)c1ccc(Br)o1	0.0%	-22	7.9µM*	3.1	29	0	-5
O=C(c1ccc(F)cc1)C1CCN(C(=O)NC2CCCCC2)CC1	-1.2%	-5	-7%	-3.7	-8	3	7
CCOCCCNC(=S)N(Cc1ccco1)Cc1cc2cc3c(cc2[nH]c1=O)OCCO3	3.3%	8	-25%	2.6	-1	-5	-12
Cc1c(OCC(=O)NCCCn2ccnc2)ccc2c3c(c(=O)oc12)CCC3	-0.5%	-1	7%	-2.3	-10	-19	-4
COc1ccc(N(C)S(=O)(=O)c2cccc3cccnc23)c(OC)c1	6.1%[38.3 µM]	-10	12%	-1.0	-10	-4	-6
COc1ccc(N=CC2=C(O)CC(C)(C)CC2=O)cc1	-0.3%	-2	3%	-1.6	-20	-2	-2
COc1ccc(C)cc1Nc1n[n+](C)c(-c2ccc(O)cc2O)s1	2.4%	-16	-7%	0.5	2	x	-2
CCc1ccc(NC(=O)CSc2nnc(CNC(=O)c3ccc(OC)cc3)o2)cc1	1.7%	3	2%	-2.2	-12	1	4
O=C1C2CCCN2C(=O)N1CCCCN1CCN(c2cccc(C(F)(F)F)c2)CC1 (centres undefined)	1.4%	2	-4%	-5.8	-6	x	5
CCOC(=O)c1nnn(-c2nonc2N)c1-c1ccc(OC)cc1	0.0%	7	15%	-1.5	4	1	12
CC1CCN(S(=O)(=O)c2cccc(-c3cn4cc(Cl)ccc4n3)c2)CC1	2.8%	11	31%[activator]	2.1	2	-8	-12
COc1ccc(-n2nc(C(=O)NCC(=O)Nc3cc(OC)c(OC)c(OC)c3)c3ccccc3c2=O)cc1OC	11%	30	6%	15	u	-2	-28
O=C(CC1SC(N2CCCC2)=NC1=O)Nc1ccc(C(=O)N2CCCC(C(F)(F)F)C2)cc1 (centres undefined)	-1.1%	-6	x	-1.9	2	1	1
C[C@H]1C(=O)N(C)CCN1C(=O)c1ccc(OC2CCN(CCc3ccccc3)CC2)cc1	0.4%	x	x	0.2	-20	-13	-1
CC(NC(=O)/C=C/c1ccccc1[N+](=O)[O-])C1CC2CCC1C2 (centres undefined)	2.7%	-16	4%	-0.8	-2	-3	-7
Cn1c(Cc2cccs2)nnc1SC/C=C/c1ccccc1	1.6%	7	10%	-2.5	-1	-1	9
COc1ccc(C(=O)Nc2ccc(S(=O)(=O)N3CCCCC3)cc2)cc1	-2.7%	-26	6%	0.4	4	-15	-11
COc1ccc(/C=N/N(c2ccccc2)c2ccccc2)cc1O	4.9%	-3	20%	2.7	-5	-13	0
COC(=O)c1cc(OC)c(OC)cc1NC(=O)Cc1cccs1	2.5%	17	u	3.3	12	-2	3
O=C(/C=N/O)NCCCN1CCOCC1	1.0%	18	11%	-5.3	-10	4	5
Cc1cc(OCC(=O)NNC(=O)c2ccncc2)cc(C)c1Cl	-0.9%	-23	10%	1.3	-4	15	0
COc1ccc(OCC(=O)Nc2c(C(=O)N(CCN(C)C)Cc3ccco3)oc3ccccc23)cc1	0.1%	5	-15%	-3.5	-30	u	-28
OCC1CCCCN1CC(O)COC(c1ccc(F)cc1)c1ccc(F)cc1 (centres undefined)	1.3%	29	-11%	-1.8	-4	x	3
NC(=O)c1ccc(-n2nnnc2SCC(=O)Nc2ccccc2F)cc1	12%	3	17%	-4.2	-7	-11	-20
O=C(Nc1ccc(C(=O)N2CCCCC2)cc1)C1CCCCC1	0.5%	-1	9%	-0.4	-13	10	2
O=c1[nH]c(CNCc2cccnc2)nc2ccccc12	0.3%	0	25µM*	8.0	-6	3	5
COc1ccccc1N=Cc1c(O)c2ccccc2oc1=O	5.9%	-11	-4%	-4.6	-25	-8	-1
CC1CN(Cc2ccccc2)C(=S)N(c2ccccc2)C1=O (centres undefined)	0.6%	x	x	-1.3	-4	-3	-10
N#CC1=C(N)OC(c2ccccc2)=C(C#N)C1c1ccc2c(c1)OCO2 (centres undefined)	0.1%	1	11%	-3.0	3	1	-6
Cc1ccc(-c2cc(C(=O)NCCCN3CCOCC3)c3ccccc3n2)cc1	-0.9%	-3	x	-0.1	-37	-13	-17
O=C(/C=C/c1ccco1)N1CCc2ccccc21	1.0%	-5	u	-0.1	-6	8	-5
O=C1c2ccc(-c3ccc(F)cc3OCc3ccccc3)cc2S(=O)(=O)c2cccc(C(=O)N3CCCC3)c21	5.2%	-11	x	-0.1	-8	x	-24
CN1C(=O)/C(=C/c2ccco2)SC1=Nc1cccc(C(=O)O)c1	-0.9%	3	u	-2.1	-2	5	u
COc1ccc(-n2c(-c3ccc(Br)cc3)c[n+]3c2CCC3)cc1	-0.8%	5	-13%	-2.5	-13	0	0
O=S(=O)(c1ccc(Cl)nc1)N1CCCc2ccccc21	-0.5%	15	8%	-0.3	-16	1	6
Cn1c(=O)oc2cc(S(=O)(=O)NC3CCN(Cc4ccccc4)CC3)ccc21	-0.5%	-3	-6%	-0.8	-6	0	-1
COc1cc(/C=C2\SC(c3ccc(C)cc3)=NC2=O)cc(OC)c1OC	19%[38.3 µM]	-4	u	-1.3	0	-11	-3
CCC(C)(C(=O)NC1CCCC1)N(Cc1cccs1)C(C)=O (centres undefined)	0.4%	-2	18%	-2.7	-16	-1	-1
CC(C)C(NC(=O)Cc1ccccc1)C(=O)N1CCN(c2cccc(Cl)c2)CC1 (centres undefined)	3.1%	12	x	-3.4	-18	4	-7
Cc1ccc(N2CS(=O)(=O)/C(=C/N(C)C)C2=O)cc1	0.2%	-1	7%	-0.5	0	9	13
O=S(=O)(c1ccccc1)C(/C=N\O)/C=C/c1ccccc1 (centres undefined)	0.1%	-1	50µM*	1.4	-2	2	-1
S=c1[nH]nc(-c2ccncc2)n1/N=C/c1cn(-c2ccccc2)nc1-c1ccccc1	7.7%	3	14%	-4.8	-21	x	0
O=C(N=C1SC2CS(=O)(=O)CC2N1c1ccc(F)cc1)C1CCCCC1 (centres undefined)	3.5%	1	13%	-3.4	-4	10	3
O=C1C(=O)N(CCCN2CCOCC2)C(c2ccc(Cl)cc2)/C1=C(\O)c1ccc2c(c1)OCCO2 (centres undefined)	4.2%	-18	12%	2.4	-4	1	-3
CCN(C(=O)CN1C(=O)S/C(=C\c2ccc(Cl)cc2)C1=O)C1CCS(=O)(=O)C1 (centres undefined)	1.2%	-23	15%	9.0	-11	0	-1
O=C(CS(=O)(=O)c1cn(CC(=O)N2CCOCC2)c2ccccc12)Nc1ccccc1F	1.0%	-9	12%	-1.9	-16	8	8
CCOc1cc(S(=O)(=O)n2nc(C)cc2C)ccc1F	-1.9%	-6	7%	-3.4	4	5	3
COC(=O)C(C)Sc1nnc(SC(C)C(=O)OC)s1 (centres undefined)	1.5%	-12	-18%	-3.0	-14	7	3
COc1ccc(NC(=O)c2c3c(nc4ccccc24)CCC3)cc1S(=O)(=O)N1CCOCC1	3.9%	5	14%	-3.6	13	-12	-4
CCC1(c2ccc(F)cc2)NC(=O)N(CC(=O)c2cc(C)n(C3CC3)c2C)C1=O (centres undefined)	-0.3%	-1	x	-7.3	-5	-1	-6
CC(Sc1nnc2n1CCCCC2)C(=O)Nc1ccccc1[N+](=O)[O-] (centres undefined)	0.6%	x	x	1.3	-2	8	0
Cc1ccc(C(C)c2c(C)c([N+](=O)[O-])cc(C)c2[N+](=O)[O-])cn1 (centres undefined)	5.4%	3	-6%	-3.5	-26	-2	-23
CC(=O)c1ccc(OC(C)C)c(CSc2nc(O)cc(=O)[nH]2)c1	1.6%	2	6%	0.3	-16	-28	u
O=S(=O)(NCc1cccs1)c1ccc(Cl)s1	-1.4%	7	5%	-2.4	-11	-22	-4

Compound profiles, from the list above:
Cc1cccc(Sc2c(C=O)c3ccccc3n2C)c1 across the screens: PINK1 modulator: 1.8%; TRPV1 potentiator: 2; Sfp inh: -8%; D2 agonist: 1.6; D2 PAM: -7; CtBP-E1A inh: 26; Six1-Eya2 inh: 24
Cn1c(Cc2cccs2)nnc1SC/C=C/c1ccccc1 across the screens: PINK1 modulator: 1.6%; TRPV1 potentiator: 7; Sfp inh: 10%; D2 agonist: -2.5; D2 PAM: -1; CtBP-E1A inh: -1; Six1-Eya2 inh: 9
CCOC(=O)c1nnn(-c2nonc2N)c1-c1ccc(OC)cc1 across the screens: PINK1 modulator: 0.0%; TRPV1 potentiator: 7; Sfp inh: 15%; D2 agonist: -1.5; D2 PAM: 4; CtBP-E1A inh: 1; Six1-Eya2 inh: 12

Not a hit list. About 3.7% of those tested had a hit in this group.
